High-throughput results deposited in PubChem by National Center for Advancing Translational Sciences (NCATS).
Marburg entry inh – blocks Marburg virus binding to or entry into cells; AID 540276; Potency, µM (series often up to 37.8 µM), for the others: at the highest dose activity change, negative = inhibition, most hits filed as inhibitors; Marburg virus pseudotyped entry inhibition, cell reporter; control for the full effect not named in the record; about a third of the inactives were read at about 46 µM; 1.8% of 300,000 active; active = well fitted inhibition curve with a large enough effect; inconclusive = small, poorly fitted or top-dose-only effect, or effect the other way; inactive = flat fitted curve, though single readings scatter; tested in HEK293 cells; about a fifth of its hits are not listed in these tables; note: % is set by controls: 0 for no effect and ±100 for the full control effect; luciferase read-out
Cruzain inh Det – blocks cruzain activity in presence of Triton detergent; purified cruzain, Z-FR-AMC fluorescence, 0.01% Triton; P25779; AID 1478; 0.43% of 200,000 active; Potency, µM, without a hit: max response, negative = inhibition, most hits filed as inhibitors;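 note: plate controls were neutral wells for no effect and buffer without enzyme for full effect; nearly all actives have a fitted effect of over 40% in size; top concentration of the series not given in the record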
Target sequence (P25779 123-467 limits assumed): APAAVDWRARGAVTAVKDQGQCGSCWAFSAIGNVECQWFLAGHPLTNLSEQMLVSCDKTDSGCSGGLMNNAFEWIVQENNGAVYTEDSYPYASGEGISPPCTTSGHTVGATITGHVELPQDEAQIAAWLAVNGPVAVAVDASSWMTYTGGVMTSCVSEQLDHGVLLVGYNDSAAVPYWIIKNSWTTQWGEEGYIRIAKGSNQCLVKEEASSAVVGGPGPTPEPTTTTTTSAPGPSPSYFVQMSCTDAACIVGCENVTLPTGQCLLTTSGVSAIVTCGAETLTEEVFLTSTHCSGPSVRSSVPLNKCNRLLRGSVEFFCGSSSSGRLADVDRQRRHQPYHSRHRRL
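Cruzain (1.5 nM) preincubated 15 min at RT with compound in 100 mM sodium acetate pH 5.5, 5 mM DTT, 0.01% Triton X-100. Reaction started with 2 uM Z-FR-AMC; AMC fluorescence (ex 360/em 450 nm) change over 60 s gave rate.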
NS1 inh – influenza NS1 inhibition. Potency, µM (highest dose often 46.1 µM), for the others: top-dose activity, positive = more growth. 0.4% of 270,000 active. AID 2326. S. cerevisiae slowed by influenza A NS1, growth recovery by OD600; active means well fitted rising curve with a large enough effect; inconclusive means small, poorly fitted or top-dose-only effect; inactive means no such curve, though single readings can be large or run the other way; note: nearly all actives have a fitted effect of over 50% in size
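In this qHTS, NS1 from influenza A is expressed in budding yeast, where it slows growth. Cells are switched from glucose to 2% galactose medium (pH 6.0, -URA), treated with compound, and growth recovery is read at OD600.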
RE007 growth inh – less growth of the S. pombe RE007 Vpr strain | S. pombe RE007 Vpr strain, BacTiter-Glo ATP luminescence, 24 h; control for the full effect not named in the record | Potency, µM (titrated, usually from 92.2 µM), inactives show top-dose activity change, negative = less growth | 0.21% of 360,000 active; active = well fitted falling curve with a large enough effect; inconclusive = small, poorly fitted or top-dose-only effect; inactive = no such curve, though single readings can be large or run the other way;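 note: % is set by controls: 0 for no effect and ±100 for the full control effect; nearly all actives have a fitted effect of over 50% in size; the assay follows cell death caused by Vpr and the record does not say whether a fall means rescue or toxicity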
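Fission yeast strain RE007, carrying one chromosomally integrated HIV-1 vpr copy, was seeded at OD 0.01 in PMG+AL medium with 23 nL pinned compound. After 24 h at 30 °C and 99% humidity, viability was read by BacTiter-Glo luminescence.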
Cruzain noTriton – cruzain (T. cruzi) inhibition without detergent; P25779; 2.3% of 200,000 active; AID 1476; Potency, µM, for inactives: max response, negative = inhibition, hits mostly inhibitors; purified cruzain, Z-FR-AMC fluorescence, no detergent;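 note: plate controls were enzyme without inhibitor for no effect and buffer without enzyme for full effect; nearly all actives have a fitted effect of over 40% in size; top concentration of the series not given in the record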
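Detergent-free condition (0.00005% Triton X-100) in acetate buffer pH 5.5 with DTT. 1.5 nM enzyme and compound were pre-mixed 15 min, then 2 uM Z-FR-AMC substrate added; reaction progress from fluorescence change between first and third reads (60 s).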
SARS PLpro yeast – blocks SARS-CoV papain-like protease in a yeast assay; S. cerevisiae expressing SARS-CoV PLpro, growth rescue; control for the full effect not named in the record; Potency, µM (highest dose often 32.9 µM), inactives show at the top dose activity, positive = growth rescue; 0.19% of 330,000 active; AID 485353; active means well fitted rising curve with a large enough effect; inconclusive means small, poorly fitted or top-dose-only effect; inactive means no such curve, though single readings can be large or run the other way; note: 0% is about no effect; nearly all actives have a fitted effect of over 55% in size; growth read by luminescence after 48 h
Lassa entry inh – inhibitors of Lassa virus binding or cell entry; Lassa virus pseudotype entry inhibition, cell reporter; control for the full effect not named in the record; Potency, µM (series often up to 37.9 µM), without a hit: at the highest dose activity change, negative = inhibition, usual class: inhibitors; 1.2% of 300,000 active; AID 540256; active means well fitted inhibition curve with a large enough effect; inconclusive means small, poorly fitted or top-dose-only effect, or effect the other way; inactive means flat fitted curve, though single readings scatter; tested in HEK293 cells; note: % is set by controls: 0 for no effect and ±100 for the full control effect; nearly all actives have a fitted effect of over 50% in size; luciferase read-out
StopGo reporter – lowers the luciferase signal of an FMDV 2A StopGo reporter | human cells with a luciferase reporter of 2A StopGo recoding; control for the full effect not named in the record | Potency, µM (series often up to 57.9 µM), for inactives: top-dose signal change, negative = less light | 1.2% of 410,000 active; active = well fitted falling curve with a large enough effect; inconclusive = small, poorly fitted or top-dose-only effect; inactive = no such curve, though single readings can be large or run the other way; tested in HEK293T cells; note: % is set by controls: 0 for no effect and ±100 for the full control effect; nearly all actives have a fitted effect of over 45% in size; luciferase light after 4 h
* = called active by the depositor; ? = inconclusive; . = no result given; & = joins results of further samples; [ ] = dose if it differs, or a comment. Unless noted, calls come from the whole dose curve; as a rule, active = well fitted curve in the direction sought with a large enough effect; inconclusive = small, poorly fitted or top-dose-only effect, or another doubt; inactive = no such curve, though single readings can be large; an effect the other way counts as inactive or inconclusive. Potency is the fitted concentration of half-maximal effect. An unsorted share of the library; any-hit rate near 4.6%.

no.	Structure	Marburg entry inh	Cruzain inh Det	NS1 inh	RE007 growth inh	Cruzain noTriton	SARS PLpro yeast	Lassa entry inh	StopGo reporter
1	CCCCc1cc(=O)oc2c(CN(C)C)c(O)ccc12	-33%	?	10%	-11%	?	-1%	-1%	15%
2	Cc1noc(C)c1COc1ccc(C(=O)N2CCCC(C(F)(F)F)C2)cc1 (stereo not drawn)	-28%	.	-10%	0%	.	-5%	-6%	0%
3	COC(=O)c1scc(-c2ccccc2)c1S(=O)(=O)Nc1ccccc1	.	-4.9%	.	.	-5%	.	-12%[46.1 µM]	7%
4	Cc1ccc(-n2nnnc2/C=C\Nc2cc(C)on2)cc1	?	-3.2%	1%	1%	-13%	14%	?	45%[activator]
5	Cc1ccc(NC(=O)COC(=O)Cn2ccc(=O)[nH]c2=O)cc1C	4%	.	.	13%	.	-2%	-9%	0%
6	COc1ccc(N2CC(NS(=O)(=O)c3cccnc3)CC2=O)cc1 (stereo not drawn)	12%[46.1 µM]	.	.	-7%	.	2%	18%	-16%
7	CCc1c(C(=O)N/N=C/c2ccsc2)csc1C	2%	-3.7%	-6%	0%	15%	-7%	9%	-24%
8	CCc1nc2nc(C)cc(Nc3cccc(C)c3C)n2n1	-6%[46.1 µM]	-0.5%	.	.	-3%	.	-19%[46.1 µM]	5%
9	COCCn1c(C)c(C)c(S(=O)(=O)c2ccccc2)c1N	.	.	5%	10%	.	-1%	.	-4%
10	C=CCN=C1S/C(=C/c2ccc([N+](=O)[O-])cc2)C(=O)N1CC=C	-5%[46.1 µM]	.	-6%	3%	.	0%	-5%	4%
11	CC(C)(C)OC(=O)N1CCN(C(=O)c2[nH]cnc2C(=O)Nc2cccc(Cl)c2)CC1	0%	.	.	-6%	.	1%	.	-14%
12	COCCNC(=O)c1ccc(Cl)c(S(=O)(=O)Nc2cccc(C)c2C)c1	5%	.	-2%	4%	.	2%	-6%	2%
13	Cc1cccn2c(=O)c(/C=C(\C#N)C(=O)NCc3ccco3)c(N3CCC(C(N)=O)CC3)nc12	4%	-4.0%	11%	.	-6%	-9%	-4%	-8%
14	Cc1nc(SCC(=O)NC2(C#N)CCCC2)n(CC(C)C)c1C	-11%[46.1 µM]	.	.	4%	.	1%	-5%	-12%
15	Cc1ccc(NC(=O)CSc2nnnn2-c2ccc3c(c2)OCO3)cc1C	?	3.6%	-2%	1%	25µM*	4%	?	?
16	O=C(COc1ccc(Cl)cc1)NCc1ccc(F)cc1	?	.	-56%	-16%	.	-7%	?	-3%
17	Brc1cc(Br)cc(CN2CCSCC2)c1	-15%[46.1 µM]	.	6%	-9%	.	0%	1%[46.1 µM]	-10%
18	COc1cc(NC(=NS(=O)(=O)c2ccccc2)c2ccccc2)ncn1	?	.	.	3%	.	.	4%[46.1 µM]	24%
19	CCOC(=O)C1=C(C)NC(=O)NC1c1cc(Br)c(O)c(OC)c1 (stereo not drawn)	0%&0%	13%	?	1%	-6%	0%	8%	-8%
20	O=C(c1ccco1)N1CCN(C(c2cccs2)c2nnnn2C2CCCC2)CC1 (stereo not drawn)	?	-5.5%	-16%	38%	-6%	-1%	11%	18%
21	CCCCN1CC(c2nc3ccccc3n2CCCCOc2cccc(C)c2C)CC1=O (stereo not drawn)	-1%[46.1 µM]	-2.3%	.	.	2%	.	14%[46.1 µM]	-1%
22	COc1cc(NS(=O)(=O)c2ccc(NC(=O)c3ccc(C(C)=O)cc3)cc2)nc(OC)n1	.	-6.6%	.	.	7%	.	-1%[46.1 µM]	0%
23	Cc1ccc(S(=O)(=O)c2nc(-c3ccccc3)oc2NCc2cccnc2)cc1	-17%	-2.9%	-49%	3%	10%	2%	-28%	23%
24	Cc1cccc(CN2CCC(N3CC(C)OC(C)C3)CC2)c1 (stereo not drawn)	-14%	.	21%	6%	.	-2%	-3%	9%
25	O=C(NCC1CCCCC1)c1ccc([N+](=O)[O-])cc1	.	.	-2%	13%	.	8%	.	6%
26	Cc1csc2c(N3CCC(C(=O)O)CC3)ncnc12	.	.	1%	0%	.	1%	.	8%
27	CCc1ccc(N2CN(Cc3ccco3)CNC2=S)cc1	10%[46.1 µM]	.	8%	13%	.	0%	-17%	-3%
28	Cc1nc2c(-c3ccccc3)c(C)[nH]n2c(=O)c1Cl	-7%	3.4%	-10%	4%	10%	-1%	-25%	0%
29	CCOC(=O)c1csc(NC(=O)C2CCCCC2)n1	16%	-0.4%	-2%	-2%	-2%	4%	7%	16%
30	O=C(Nc1cccc(-c2nc3ccccc3s2)c1)c1cccs1	?	-8.2%	-6%	-2%	-8%	-69%	2%	-13%
31	COc1ccc(N2C(=O)CC(c3ccccc3)C2=O)cc1 (stereo not drawn)	2%	.	-3%	7%	.	1%	-5%	-11%
32	O=C(NC(=O)c1ccc(F)cc1F)Nc1ccc(Cl)cc1	?	.	-5%	0%	.	-5%	8%[46.1 µM]	18%
33	CSc1ccc(CN2CCC(N3CC(C)OC(C)C3)CC2)cc1 (stereo not drawn)	?	.	-5%	4%	.	-1%	0%	-30%
34	CC(C)(C)c1ccc(C(=O)Nc2ccc(O)c3c(=O)cc(-c4cccc(Cl)c4)oc23)cc1	.	.	5%	4%	.	-1%	.	-20%
35	Cc1ccc(N(CC(=O)Nc2ccc(Cl)cc2)S(=O)(=O)c2cccc3nonc23)cc1	-6%[46.1 µM]	-4.2%	.	.	?	.	-12%[46.1 µM]	9%
36	Cc1ccccc1OCC(=O)Nc1ccc(OCc2cc(=O)n3ccccc3n2)cc1	.	1.8%	.	.	-1%	.	26%[46.1 µM]	-2%
37	O=C(c1nn2c(C(F)(F)F)cc(-c3ccc(F)cc3)nc2c1Cl)N1CCOCC1	1%	-0.9%	-11%	7%	?	-3%	-18%	0%
38	O=NNc1nc2ccccc2n1Cc1ccccc1	.	.	1%	17%	.	3%	.	-12%
39	O=[N+]([O-])c1ccc(CSc2nnc3ccccn23)cc1	.	.	9%	-3%	.	2%	.	4%
40	CCOC(=O)c1nnn(CC(=O)N2N=C(c3cc(C)ccc3C)CC2c2ccc(OC)cc2)c1C(=O)OCC (stereo not drawn)	?	-5.9%	15%	1%	20%	2%	?	-14%
41	O=C(O)CSCC(=O)Nc1cccc2ccccc12	4%	-1.9%	9%	15%	7%	1%	-3%	.
42	O=S(=O)(c1ccccc1)N(C1=NCCS1)S(=O)(=O)c1ccccc1	-3%	-0.8%	0%	1%	1%	1%	12%	42%[activator]
43	COc1ccccc1CNc1nc(SC)ncc1CO	?	-2.5%	4%	26%	0%	-6%	-13%	2%
44	O=C(CCCn1c(=O)[nH]c2cc(Cl)ccc2c1=O)NCCCN1CCCC1=O	-2%	-0.2%	-1%	3%	1%	10%	11%	-3%
45	Cc1cc(C(F)(F)F)c2c(N)c(C(=O)Nc3cc(C)on3)sc2n1	?	-0.8%	-13%	9%	14%	0%	2%	13%
46	Cc1cc(C)cc(Oc2coc3c(CN(C)C)c(O)ccc3c2=O)c1	-6%	.	7%	1%	.	-1%	5%	0%
47	Cc1oc(C(=O)O)cc1COc1ccc2c(C)cc(=O)oc2c1	-13%[46.1 µM]	0.1%	4%	3%	-17%	0%	20%	-9%
48	Nc1nnc(SCC(=O)Nc2ccc(Cl)cc2)s1	.	-6.6%	.	.	-22%	.	?	-10%
49	CC(C)Cc1nnc(NC(=O)CS(=O)(=O)Cc2ccccc2)s1	1%	-3.2%	-2%	1%	-6%	-5%	6%	-3%
50	COc1cccc2cc(C(C)N(CCCN3CCOCC3)C(=S)Nc3ccccc3C)oc12 (stereo not drawn)	?	.	.	6%	.	0%	-12%[46.1 µM]	-5%
51	O=C(COC(=O)[C@@H]1CC(O)CN1S(=O)(=O)c1ccc(Cl)c(Cl)c1)NC(=O)NCc1ccccc1 (stereo partly drawn)	11%[46.1 µM]	.	.	-6%	.	3%	4%[46.1 µM]	-27%
52	CCOc1cc2sc(N3CCC(C(=O)Nc4ccccc4Cl)CC3)nc2cc1Br	4%[46.1 µM]	0.0%	.	.	7%	.	.	4%

Structures listed so far with an aryl methoxy group (eight):
no.	Structure	Marburg entry inh	Cruzain inh Det	NS1 inh	RE007 growth inh	Cruzain noTriton	SARS PLpro yeast	Lassa entry inh	StopGo reporter
6	COc1ccc(N2CC(NS(=O)(=O)c3cccnc3)CC2=O)cc1 (stereo not drawn)	12%[46.1 µM]	.	.	-7%	.	2%	18%	-16%
18	COc1cc(NC(=NS(=O)(=O)c2ccccc2)c2ccccc2)ncn1	?	.	.	3%	.	.	4%[46.1 µM]	24%
19	CCOC(=O)C1=C(C)NC(=O)NC1c1cc(Br)c(O)c(OC)c1 (stereo not drawn)	0%&0%	13%	?	1%	-6%	0%	8%	-8%
22	COc1cc(NS(=O)(=O)c2ccc(NC(=O)c3ccc(C(C)=O)cc3)cc2)nc(OC)n1	.	-6.6%	.	.	7%	.	-1%[46.1 µM]	0%
31	COc1ccc(N2C(=O)CC(c3ccccc3)C2=O)cc1 (stereo not drawn)	2%	.	-3%	7%	.	1%	-5%	-11%
40	CCOC(=O)c1nnn(CC(=O)N2N=C(c3cc(C)ccc3C)CC2c2ccc(OC)cc2)c1C(=O)OCC (stereo not drawn)	?	-5.9%	15%	1%	20%	2%	?	-14%
43	COc1ccccc1CNc1nc(SC)ncc1CO	?	-2.5%	4%	26%	0%	-6%	-13%	2%
50	COc1cccc2cc(C(C)N(CCCN3CCOCC3)C(=S)Nc3ccccc3C)oc12 (stereo not drawn)	?	.	.	6%	.	0%	-12%[46.1 µM]	-5%
